Screening data (PubChem)
FGF22 binding – binders of human FGF22 protein, primary screen, FGF22 synaptogenesis inhibitor project, biophysical, thermal shift, single point; 1.5% of 340,000 active; Fibroblast growth factor 22 (Homo sapiens), Q9HCT0; calls only at 9.99 µM; recombinant FGF22 thermal shift, SYPRO orange fluorescence; percent of sucrose octasulfate shift, DMSO zero;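 active = melting point raised past a set limit in the mean and every replicate; three in four hits are not shown here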
Target sequence (Q9HCT0 whole entry, looked up): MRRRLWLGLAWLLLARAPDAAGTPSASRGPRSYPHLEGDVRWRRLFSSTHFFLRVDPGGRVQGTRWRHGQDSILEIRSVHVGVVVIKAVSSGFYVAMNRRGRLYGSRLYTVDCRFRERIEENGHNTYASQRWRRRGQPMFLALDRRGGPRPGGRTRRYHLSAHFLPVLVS
rRNA inh HTS – reduced GFP signal of wild-type E. coli, primary screen, bacterial rRNA inhibitor project, GFP/RFP fluorescence, OD600, single point | 1.6% of 350,000 active | E. coli WT GFP vs humanized-ribosome RFP mutants, 24 h; active compounds read low; DMSO median 0, no signal -100 | AID 720706, 2013 | GFP signal change (wild-type ribosome), % (no concentration beside the values);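 active = significant combined selectivity score with lowered wild-type GFP, culture density cut under 30%, mutant RFP and density less affected; inactive = any of these conditions unmet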; note: one replicate is shown; some compounds called inactive have numbers as strong as hits
rRNA inh HTS OD600 – recorded beside rRNA inh HTS, whose call it bears; OD600 change, %; measured here: OD600 growth;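 optical density of the mix in the first replicate; 0 = DMSO median and -100 = no signal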
rRNA inh HTS RFP – also measured in rRNA inh HTS; calls as there; RFP signal change, %; measured here: RFP humanized mutant strains;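 first replicate; 0 = DMSO median and -100 = no signal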
* hit, by the source's call; i = inactive; + = active, no number. An excerpt (hit frequency here may not be typical).

compound	rRNA inh HTS RFP	rRNA inh HTS OD600	rRNA inh HTS	FGF22 binding
C[C@@H](O)C#Cc1ccc([C@H]2[C@@H](CO)N3CCCCN(C(=O)c4ccc(F)cc4)C[C@H]23)cc1	-1.6	8	3	i
CCOC(=O)N(C)C[C@@H]1OCc2ccccc2-c2ccccc2C(=O)N([C@H](C)CO)C[C@H]1C	-2.9	1	-2	i
C[C@@H]1CN([C@H](C)CO)C(=O)c2cc(NC(=O)Nc3ccccc3)ccc2O[C@@H]1CN(C)C(=O)Nc1ccccc1	-1.3	13	4	i
C[C@H](CO)N1C[C@H](C)[C@@H](CN(C)S(=O)(=O)c2ccc(Cl)cc2)Oc2ccc(NC(=O)NC3CCCCC3)cc2C1=O	0.6	-2	-4	i
C[C@@H]1CN([C@H](C)CO)C(=O)c2cc(NC(=O)Nc3cccc4ccccc34)ccc2O[C@@H]1CN(C)S(=O)(=O)c1cccs1	2.0	1	2	i
COc1ccccc1-c1ccc([C@@H]2[C@@H](CO)N3CCCCN(C(=O)c4cccnc4)C[C@@H]23)cc1	-0.5	-8	-7	i
C[C@H](CO)N1C[C@H](C)[C@H](CN(C)C(=O)Nc2ccc(C(F)(F)F)cc2)Oc2ccc(NS(C)(=O)=O)cc2CC1=O	-0.8	-4	-2	i
Cc1noc(C)c1NC(=O)Nc1ccc2c(c1)C(=O)N([C@H](C)CO)C[C@H](C)[C@H](CN(C)C(=O)Nc1cccc3ccccc13)O2	-0.3	4	0	i
C[C@H](CO)N1C[C@H](C)[C@@H](CN(C)Cc2ccccc2)Oc2ccc(NS(=O)(=O)c3cn(C)cn3)cc2C1=O	-0.4	9	1	i
COC(=O)C[C@@H]1CC[C@H]2[C@H](COc3ccc(NC(=O)c4cc(C)on4)cc3C(=O)N2C)O1	-0.6	0	0	i
C[C@H](CO)N1C[C@H](C)[C@H](CN(C)Cc2ccc(C(=O)O)cc2)OCCCC[C@H](C)Oc2ccc(NC(=O)c3ccccc3)cc2C1=O	0.3	-5	-1	i
CCC(=O)N1[C@@H](CO)[C@@H](c2ccccc2)[C@@H]1CN(C)C(=O)c1ccccc1F	0.1	8	1	i
CCCN1[C@H](C(=O)N2CCCCC2)[C@@H](CO)[C@@H]2Cn3c(cccc3=O)[C@@H]21	-2.6	-1	0	i
CO[C@@H]1CN(C)C(=O)c2ccc(NC(=O)c3ccc(F)cc3)cc2OC[C@H](C)N(C(C)=O)C[C@@H]1C	-4.1	4	2	i
C[C@H](CO)N1C[C@H](C)[C@@H](CN(C)Cc2ccccc2)Oc2c(NC(=O)NC3CCCCC3)cccc2C1=O	13	-43	-6	i
C/C=C/c1ccc([C@H]2[C@H]3CN(S(=O)(=O)c4ccccc4)CCCCN3[C@H]2CO)cc1	1.3	-59	-28	i
CC(C)NC(=O)Nc1ccc2c(c1)C(=O)N([C@H](C)CO)C[C@H](C)[C@H](CN(C)S(C)(=O)=O)O2	0.4	3	0	i
CN1C(=O)c2cc(NC(=O)Cc3cccs3)ccc2OC[C@H]2O[C@H](CC(=O)N[C@@H]3CCN(Cc4ccccc4)C3)CC[C@H]21	-2.5	1	-1	i
COc1ccccc1CN1[C@@H]2CNC[C@H]1C2c1ccc(/C=C/c2ccccc2)cc1 (stereo partly drawn)	-14	-79	-57	i
COc1ccccc1-c1ccccc1[C@@H]1[C@@H](C#N)N(C(=O)C2CCC2)[C@H]1CO	3.7	11	2	i

9 entries already listed, ordered by molecular weight, high to low.
compound	rRNA inh HTS RFP	rRNA inh HTS OD600	rRNA inh HTS	FGF22 binding
C[C@@H]1CN([C@H](C)CO)C(=O)c2cc(NC(=O)Nc3ccccc3)ccc2O[C@@H]1CN(C)C(=O)Nc1ccccc1	-1.3	13	4	i
C[C@H](CO)N1C[C@H](C)[C@@H](CN(C)Cc2ccccc2)Oc2ccc(NS(=O)(=O)c3cn(C)cn3)cc2C1=O	-0.4	9	1	i
C[C@H](CO)N1C[C@H](C)[C@@H](CN(C)Cc2ccccc2)Oc2c(NC(=O)NC3CCCCC3)cccc2C1=O	13	-43	-6	i
CC(C)NC(=O)Nc1ccc2c(c1)C(=O)N([C@H](C)CO)C[C@H](C)[C@H](CN(C)S(C)(=O)=O)O2	0.4	3	0	i
COc1ccccc1-c1ccc([C@@H]2[C@@H](CO)N3CCCCN(C(=O)c4cccnc4)C[C@@H]23)cc1	-0.5	-8	-7	i
CCOC(=O)N(C)C[C@@H]1OCc2ccccc2-c2ccccc2C(=O)N([C@H](C)CO)C[C@H]1C	-2.9	1	-2	i
COC(=O)C[C@@H]1CC[C@H]2[C@H](COc3ccc(NC(=O)c4cc(C)on4)cc3C(=O)N2C)O1	-0.6	0	0	i
CCC(=O)N1[C@@H](CO)[C@@H](c2ccccc2)[C@@H]1CN(C)C(=O)c1ccccc1F	0.1	8	1	i
CCCN1[C@H](C(=O)N2CCCCC2)[C@@H](CO)[C@@H]2Cn3c(cccc3=O)[C@@H]21	-2.6	-1	0	i

Following part.
compound	rRNA inh HTS RFP	rRNA inh HTS OD600	rRNA inh HTS	FGF22 binding
COCCNC(=O)C[C@H]1C[C@@H]2c3cc(NC(=O)Nc4ccc(C(F)(F)F)cc4)ccc3O[C@@H]2[C@H](CO)O1	-0.6	-11	-5	i
O=C(NCC1CC1)[C@H]1[C@H](CO)[C@H]2Cn3c(ccc(-c4cccc(F)c4)c3=O)[C@H]2N1CC1CCOCC1	0.0	-2	-2	i
O=C(Nc1ccccc1F)N[C@H]1CC[C@@H](CCNS(=O)(=O)c2ccccc2)O[C@@H]1CO	-0.4	-2	-1	i
COc1cccc(NC(=O)N(C)C[C@H]2Oc3cc(-c4ccccc4F)ccc3S(=O)(=O)N([C@H](C)CO)C[C@@H]2C)c1	0.6	-10	-3	+
CN(C)CC#Cc1ccc([C@H]2[C@H](CO)N3CCCCN(C(=O)Nc4ccc(F)cc4)C[C@@H]23)cc1	-3.6	9	-2	i
Cc1noc(C)c1NC(=O)N(C)C[C@@H]1Oc2ccc(NS(=O)(=O)c3ccc(Cl)cc3)cc2C(=O)N([C@@H](C)CO)C[C@H]1C	-2.6	4	-2	i
O=C(C[C@H]1C=C[C@H](NC(=O)C2CC2)[C@H](CO)O1)NCCCN1CCOCC1	3.1	6	2	i
C[C@@H]1CN([C@@H](C)CO)C(=O)c2cc(NC(=O)Nc3ccc4c(c3)OCO4)ccc2O[C@@H]1CN(C)S(=O)(=O)c1cn(C)cn1	0.1	0	-2	i
COc1ccccc1-c1cnc2c(c1)C(=O)N([C@@H](C)CO)C[C@@H](C)[C@@H](CN(C)Cc1cccnc1)O2	-3.0	16	-1	i
CCC(=O)N1C[C@@H](C)[C@@H](OC)CN(C)C(=O)c2cc(NC(=O)c3ccccc3)ccc2OC[C@@H]1C	1.1	-6	0	i
CC(C)NC(=O)Nc1ccc2c(c1)C(=O)N([C@H](C)CO)C[C@H](C)[C@H](CN(C)C(=O)Nc1cccc3ccccc13)OCCCC[C@@H](C)O2	0.1	1	5	i
COCC(=O)Nc1ccc2c(c1)[C@@H]1C[C@@H](CC(=O)NCc3ccccn3)O[C@@H](CO)[C@@H]1O2	-0.3	5	3	+
C[C@H]1CN([C@@H](C)CO)C(=O)c2cc(N(C)C)ccc2O[C@@H]1CN(C)S(=O)(=O)c1cccs1	0.2	-5	-1	i
CC(C)C(=O)Nc1ccc2c(c1)C(=O)N(C)[C@H]1CC[C@@H](CC(=O)NCc3ccc(F)cc3)O[C@@H]1CO2	-3.4	-1	-3	i
CC(C)NC(=O)N[C@@H]1CC[C@H](CC(=O)NCCCN(C)C)O[C@@H]1CO	0.3	-10	-5	i
C[C@@H]1CCCCO[C@H](CN(C)S(=O)(=O)c2ccc(F)cc2)[C@@H](C)CN([C@@H](C)CO)C(=O)c2cc(NC(=O)CCCN(C)C)ccc2O1	-2.0	2	1	i
O=C(C[C@H]1CC[C@@H]2[C@H](COC[C@@H](O)CN2C(=O)Nc2ccc(F)cc2)O1)NCC1CC1	-1.4	0	4	i
CO[C@@H]1CN(C)C(=O)c2cc(NC(=O)C3CCCC3)ccc2OC[C@@H](C)NC[C@@H]1C	-0.8	15	1	i
COc1ccccc1-c1ccc2c(c1)O[C@H](CN(C)S(=O)(=O)c1ccccc1)[C@H](C)CN([C@H](C)CO)S2(=O)=O	2.2	1	1	i
CCCN1C[C@H](C)[C@H](OC)CN(C)C(=O)c2ccc(NC(=O)c3ccccc3)cc2OC[C@@H]1C	-2.1	6	0	i
COc1ccc(NC(=O)N(C)C[C@@H]2Oc3ccc(NS(=O)(=O)c4ccc(F)cc4)cc3C(=O)N([C@@H](C)CO)C[C@@H]2C)cc1	-3.4	12	2	i
CC(C)[C@H](NC(=O)CC1CCCC1)C(=O)N1CCC[C@H]1C(=O)NCc1ccccc1	6.8	7	16	i
COc1ccc(S(=O)(=O)N(C)C[C@@H]2Oc3c(NS(=O)(=O)c4cn(C)cn4)cccc3C(=O)N([C@H](C)CO)C[C@@H]2C)cc1	-1.5	0	4	i
COc1ccc(NC(=O)N(C)C[C@H]2Oc3ccc(NC(=O)Nc4ccc(C(F)(F)F)cc4)cc3C(=O)N([C@@H](C)CO)C[C@@H]2C)cc1	0.2	0	2	i
C[C@@H]1CN([C@H](C)CO)C(=O)c2cc(NC(=O)Cc3cn(C)c4ccccc34)ccc2O[C@@H]1CN(C)Cc1ccc(C(F)(F)F)cc1	4.3	1	0	i
CO[C@@H]1CN(C)C(=O)c2ccc(NS(C)(=O)=O)cc2OC[C@H](C)N(C(=O)C2CC2)C[C@H]1C	3.2	-2	-1	i
C[C@@H]1CN([C@H](C)CO)C(=O)c2cc(C#CCC3CCCC3)cnc2O[C@H]1CN(C)Cc1ccccn1	8.6	-68	-32	i
C[C@@H]1CN([C@@H](C)CO)C(=O)c2cc(NC(=O)Nc3cccc4ccccc34)ccc2O[C@@H](C)CCCCO[C@H]1CN(C)C	1.5	-2	-1	i
CC(C)NC(=O)N(C)C[C@@H]1Oc2ncc(C#CC3CC3)cc2C(=O)N([C@@H](C)CO)C[C@@H]1C	-2.7	2	1	i
COc1ccccc1CN1CC[C@@H]2[C@H](CO)Nc3ccc(C#Cc4ccccc4)cc3[C@@H]21	-16	-71	-58	i
COC(=O)C1=C(C)N(C)C(=NCc2ccc(OC)cc2)NC1c1cccc(F)c1 (stereo not drawn)	2.9	3	11	i
COc1ccc(S(=O)(=O)N[C@H]2C=C[C@@H](CC(=O)N3CCC(Cc4ccccc4)CC3)O[C@@H]2CO)cc1	4.5	-26	-4	i
C[C@H]1CN([C@@H](C)CO)C(=O)c2c(c3ccccc3n2C)-c2ccccc2CO[C@@H]1CN(C)C(=O)c1cc(Cl)cc(Cl)c1	4.4	-7	3	i
O=C(C[C@H]1CC[C@H]2[C@@H](COC[C@H](O)CN2Cc2nccs2)O1)NCc1ccc(-c2ccccc2)cc1	1.4	-9	-3	i
CC(C)(O)C#Cc1ccc([C@H]2[C@H]3CN(C(=O)c4cccc(F)c4)CCCCN3[C@H]2CO)cc1	2.5	19	-2	i
N#C[C@@H]1[C@@H](c2ccccc2C2=CCCCC2)[C@H](CO)N1C(=O)NC1CCCC1	6.1	-65	-13	i
C[C@@H]1CN([C@@H](C)CO)S(=O)(=O)c2ccc(/C=C/c3ccccc3)cc2O[C@H]1CN(C)C(=O)Nc1ccc(F)cc1	-2.1	5	-1	+
C[C@@H]1CCCCO[C@@H](CN(C)S(=O)(=O)c2ccc(Cl)cc2)[C@@H](C)CN([C@H](C)CO)C(=O)c2cc(NS(=O)(=O)c3ccc(F)cc3)ccc2O1	-0.6	7	3	i
CCCNC(=O)N(C)C[C@H]1Oc2ncc(/C=C/c3ccccc3)cc2C(=O)N([C@@H](C)CO)C[C@@H]1C	-2.5	1	-3	i
COc1ccc(S(=O)(=O)N[C@H]2CC[C@@H](CC(=O)NCCc3ccncc3)O[C@@H]2CO)cc1	-2.9	8	2	i

Whole records as entered above.
N#C[C@@H]1[C@@H](c2ccccc2C2=CCCCC2)[C@H](CO)N1C(=O)NC1CCCC1 is listed as rRNA inh HTS RFP = 6.1; rRNA inh HTS OD600 = -65; rRNA inh HTS = -13; FGF22 binding = i
O=C(C[C@H]1CC[C@H]2[C@@H](COC[C@H](O)CN2Cc2nccs2)O1)NCc1ccc(-c2ccccc2)cc1 is listed as rRNA inh HTS RFP = 1.4; rRNA inh HTS OD600 = -9; rRNA inh HTS = -3; FGF22 binding = i

Carrying on.
compound	rRNA inh HTS RFP	rRNA inh HTS OD600	rRNA inh HTS	FGF22 binding
Cc1cc(C(=O)Nc2cccc3c2O[C@H](CN(C)CC2CC2)[C@@H](C)CN([C@@H](C)CO)C3=O)n(C)n1	-0.1	5	-3	i
C[C@H]1CN([C@@H](C)CO)C(=O)c2cccc(NC(=O)Nc3ccc(C(F)(F)F)cc3)c2O[C@H]1CN(C)Cc1ccc(Cl)c(Cl)c1	2.0	4	0	i
CO[C@@H]1CN(C)C(=O)c2cc(NS(=O)(=O)CC(F)(F)F)ccc2OC[C@@H](C)N(C(=O)c2ccc3c(c2)OCO3)C[C@H]1C	-2.3	2	0	i
CS(=O)(=O)N1CCCCN2[C@H](C1)[C@H](c1ccc(Br)cc1)[C@@H]2CO	0.4	-7	-3	i
CN(C)C(=O)C[C@@H]1C[C@H]2c3cc(NC(=O)C4CCC4)ccc3O[C@H]2[C@@H](CO)O1	1.0	9	4	i
CN(C)CCCNC(=O)[C@H]1[C@H](CO)[C@H]2Cn3c(ccc(-c4ccc(F)cc4)c3=O)[C@@H]1N2C	-2.8	-2	3	i
